Compound activity: PubChem BioAssay, National Center for Advancing Translational Sciences (NCATS)
Cruzain inh noDet: qHTS Assay for Promiscuous and Specific Inhibitors of Cruzain (without detergent); Cruzipain (Trypanosoma cruzi), P25779; purified cruzain, Z-FR-AMC fluorescence, no detergent; Potency, µM, inactives show max response, negative = inhibition, most hits filed as inhibitors; 200,000 compounds, 2.3% hits;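 note: plate controls were enzyme without inhibitor for no effect and buffer without enzyme for full effect; nearly all actives have a fitted effect of over 40% in size; top concentration of the series not given in the record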
Target sequence (P25779 123-467 limits assumed): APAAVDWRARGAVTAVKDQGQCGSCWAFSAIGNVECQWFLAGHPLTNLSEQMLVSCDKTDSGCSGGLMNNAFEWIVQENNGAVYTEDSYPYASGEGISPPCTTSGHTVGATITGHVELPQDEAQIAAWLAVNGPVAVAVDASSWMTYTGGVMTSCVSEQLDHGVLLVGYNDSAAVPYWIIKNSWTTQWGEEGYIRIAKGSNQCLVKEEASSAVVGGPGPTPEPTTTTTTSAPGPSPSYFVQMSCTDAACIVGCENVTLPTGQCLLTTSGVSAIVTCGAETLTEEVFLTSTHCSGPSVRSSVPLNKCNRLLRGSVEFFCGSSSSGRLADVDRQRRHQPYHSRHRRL
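Purified cruzain at 1.5 nM, pre-incubated 15 min with compound at room temperature in 100 mM sodium acetate pH 5.5, 5 mM DTT, 0.00005% Triton X-100. Reaction started with 2 uM Z-FR-AMC; AMC fluorescence increase over 60 s gives rate.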
StopGo reporter: High Throughput Screening for Foot and Mouth Disease Virus Antivirals | 410,000 compounds, 1.2% hits | Potency, µM (highest dose often 57.9 µM), without a hit: top-dose signal change, negative = less light | human cells with a luciferase reporter of 2A StopGo recoding; control for the full effect not named in the record; active = well fitted falling curve with a large enough effect; inconclusive = small, poorly fitted or top-dose-only effect; inactive = no such curve, though single readings can be large or run the other way; tested in HEK293T cells; note: % is set by controls: 0 for no effect and ±100 for the full control effect; nearly all actives have a fitted effect of over 45% in size; luciferase light after 4 h
NS1 inh: qHTS Assay for Inhibitors of Influenza NS1 Protein Function; S. cerevisiae slowed by influenza A NS1, growth recovery by OD600; Potency, µM (top dose mostly 46.1 µM), for the others: at the highest dose activity, positive = more growth; 270,000 compounds, 0.4% hits; AID 2326, 2010; active means well fitted rising curve with a large enough effect; inconclusive means small, poorly fitted or top-dose-only effect; inactive means no such curve, though single readings can be large or run the other way; note: nearly all actives have a fitted effect of over 50% in size
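S. cerevisiae expressing influenza A NS1, grown in glucose, washed, then diluted 1:100 into pH 6.0 -URA galactose medium with 23 nl compound. Growth recovery read as OD600; NS1-free strain serves as control.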
Marburg entry inh: qHTS for inhibitors of binding or entry into cells for Marburg Virus | Marburg virus pseudotyped entry inhibition, cell reporter; control for the full effect not named in the record; about a third of the inactives were read at about 46 µM | AID 540276, 2011 | Potency, µM (series often up to 37.8 µM), inactives show at the top dose activity change, negative = inhibition, usual class: inhibitors | 300,000 compounds, 1.8% hits; active = well fitted inhibition curve with a large enough effect; inconclusive = small, poorly fitted or top-dose-only effect, or effect the other way; inactive = flat fitted curve, though single readings scatter; tested in HEK293 cells; about a fifth of its hits are not listed in these tables; note: % is set by controls: 0 for no effect and ±100 for the full control effect; luciferase read-out
LASV entry inh: qHTS for Inhibitors of binding or entry into cells for Lassa Virus. AID 540256, 2011. Lassa virus pseudotype entry inhibition, cell reporter; control for the full effect not named in the record. Potency, µM (series often up to 37.9 µM), inactives show at the highest dose activity change, negative = inhibition, actives largely listed as inhibitors. 300,000 compounds, 1.2% hits; active means well fitted inhibition curve with a large enough effect; inconclusive means small, poorly fitted or top-dose-only effect, or effect the other way; inactive means flat fitted curve, though single readings scatter; tested in HEK293 cells; note: % is set by controls: 0 for no effect and ±100 for the full control effect; nearly all actives have a fitted effect of over 50% in size; luciferase read-out
Cruzain inh Det: qHTS Assay for Promiscuous and Specific Inhibitors of Cruzain (with detergent). purified cruzain, Z-FR-AMC fluorescence, 0.01% Triton. Potency, µM, for inactives: max response, negative = inhibition, usual class: inhibitors. 200,000 compounds, 0.43% hits. AID 1478, 2009;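 note: plate controls were neutral wells for no effect and buffer without enzyme for full effect; nearly all actives have a fitted effect of over 40% in size; top concentration of the series not given in the record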
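Enzyme 1.5 nM, Z-FR-AMC 2 uM, NaOAc 100 mM pH 5.5, DTT 5 mM, Triton X-100 0.01%; 15 min RT compound preincubation; kinetic ex360/em450, 60 s delta.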
RE007 growth inh: qHTS Assay for Inhibitors of the HIV-1 protein Vpr; S. pombe RE007 Vpr strain, BacTiter-Glo ATP luminescence, 24 h; control for the full effect not named in the record; Potency, µM (top dose mostly 92.2 µM), for inactives: top-dose activity change, negative = less growth; 360,000 compounds, 0.21% hits; AID 651644, 2012; active = well fitted falling curve with a large enough effect; inconclusive = small, poorly fitted or top-dose-only effect; inactive = no such curve, though single readings can be large or run the other way;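 note: % is set by controls: 0 for no effect and ±100 for the full control effect; nearly all actives have a fitted effect of over 50% in size; the assay follows cell death caused by Vpr and the record does not say whether a fall means rescue or toxicity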
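Fission yeast RE007 carrying one integrated HIV-1 vpr copy, seeded at OD 0.01 in PMG+AL medium with 23 nL pinned compound. Grown 24 h at 30 degrees; viability read by BacTiter-Glo luminescence after 5 min.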
SARS PLP yeast: qHTS of Yeast-based Assay for SARS-CoV PLP. S. cerevisiae expressing SARS-CoV PLpro, growth rescue; control for the full effect not named in the record. Potency, µM (top dose mostly 32.9 µM), without a hit: at the highest dose activity, positive = growth rescue. 330,000 compounds, 0.19% hits. AID 485353, 2010; active means well fitted rising curve with a large enough effect; inconclusive means small, poorly fitted or top-dose-only effect; inactive means no such curve, though single readings can be large or run the other way; note: 0% is about no effect; nearly all actives have a fitted effect of over 55% in size; growth read by luminescence after 48 h
Active calls of the source: *; ? = inconclusive; / = not tested or not shown; & = joins results of further samples; [ ] = another dose, or the depositor's remark. Unless noted, calls come from the whole dose curve; as a rule, active = well fitted curve in the direction sought with a large enough effect; inconclusive = small, poorly fitted or top-dose-only effect, or another doubt; inactive = no such curve, though single readings can be large; an effect the other way counts as inactive or inconclusive. Potency is the fitted concentration of half-maximal effect.

SMILES	Cruzain inh noDet	StopGo reporter	NS1 inh	Marburg entry inh	LASV entry inh	Cruzain inh Det	RE007 growth inh	SARS PLP yeast
CCOC(=O)c1[nH]c2c(c1C)C(=O)CC(c1ccco1)C2 (stereo not drawn)	15.5%	0.0%	-15.1%	/	/	-6.5%	-9.4%	-7.0%
Cc1ccc(NC(=O)Cn2nc3c(cc2=O)CCCC3)cc1Cl	-5.0%	-11.4%	/	/	-1.3%[46.1 µM]	-2.5%	/	/
CCCc1c(C(=O)OCC)sc(N)c1C#N	/	1.4%	-1.9%	8.4%[46.1 µM]	-5.6%[46.1 µM]	/	0.7%	1.8%
O=Cc1cn(Cc2ccc(F)cc2)c2ccccc12	/	-22.9%	0.9%	?	?	/	11.2%	-0.5%
Cc1cc(C)n2nc(C(=O)OCC(=O)Nc3ccc4c(c3)OC(F)(F)O4)nc2n1	6.1%	-6.1%	0.9%	-20.0%[46.1 µM]	3.3%	1.7%	6.4%	-2.2%
C/C(CC(=O)Nc1ccc(C)c(Cl)c1)=N\NC(=O)c1ccccn1	/	27.1%	6.7%	-26.2%[46.1 µM]	10.6%[46.1 µM]	/	5.4%	-1.2%
CCOc1ccccc1C(=O)N(Cc1cc(OC)c(OC)c(OC)c1)C1CCS(=O)(=O)C1 (stereo not drawn)	2.4%	1.7%	/	13.3%[46.1 µM]	9.3%[46.1 µM]	-2.1%	/	/
COc1ccc2[nH]c(=O)c(CNc3ccc(C)cc3C)cc2c1	/	-10.1%	1.8%	-12.1%	?	/	-12.3%	-0.4%
COc1ccc(C(=O)NC(=S)NCc2cccnc2)cc1[N+](=O)[O-]	-7.7%	-2.3%	14.7%	-4.4%	-9.5%	-4.4%	4.0%	2.0%
Fc1ccc(-c2ccc(-c3nn4c(-c5ccco5)nnc4s3)o2)cc1	?	7.9%	-5.9%	-1.0%	7.9%	-0.2%	-27.5%	-4.3%
CCOC(=O)c1c(NC(C)=O)sc2c(O)c(CN3CCN(CC)CC3)ccc12	-5.1%	/	13.0%	1.6%	-10.2%	-0.8%	11.9%	-4.1%
O=C(Nc1ccccc1F)c1ccc(C(=O)c2ccccc2)cc1	/	48.2%[activator]	-7.0%	?	-4.7%	/	0.2%	1.3%
CCOc1ccccc1NC(=O)CSc1nc2c(oc3ccccc32)c(=O)n1-c1ccc(C)c(C)c1	2.2%	-1.0%	/	-29.3%[46.1 µM]	/	-0.9%	/	/
O=C(Nc1ccc(F)cc1)C1CCCN1S(=O)(=O)c1cccc2nsnc12 (stereo not drawn)	/	-23.1%	1.6%	/	/	/	-1.4%	-1.4%
O=C(Nc1ccccc1C(=O)OCc1cc(=O)n2ccsc2n1)c1ccc(Cl)cc1	-0.7%	-3.3%	/	/	-13.8%[46.1 µM]	1.5%	/	/
CCOc1ccc(N2CC(O)=C(c3nc4ccccc4c(=O)[nH]3)C2=N)cc1	/	4.0%	/	-3.5%[46.1 µM]	10.6%[46.1 µM]	/	1.4%	0.0%
Cc1ccc(NC(=O)/C=C/c2cccs2)c([N+](=O)[O-])c1	-0.3%	46.7%[activator]	-1.7%	?	1.8%	8.6%	-6.8%	11.5%
CCC(C)(C(=O)NC1CCCC1)N(Cc1cccs1)C(=O)c1ccccn1 (stereo not drawn)	/	0.5%	/	-11.0%[46.1 µM]	10.0%	/	12.3%	-0.2%
Cc1ccc(NC(=O)CCNS(=O)(=O)c2cccc3nonc23)cc1	4.0%	53.7%	1.0%	12.1%	?	0.8%	0.0%	5.5%
COc1ccc(CC(=O)NNC(=O)[C@@H]2CCCC[C@@H]2C(=O)O)cc1	/	-20.0%	-0.5%	/	/	/	0.6%	-2.0%
CCc1ccc(NC(=O)N(Cc2c[nH]c3ccccc23)C2CCCCCC2)cc1	?	40.4%[activator]	/	-12.1%[46.1 µM]	?	-7.3%	/	/
COc1ccc(C(C)=O)cc1CSc1nc2ccccc2o1	-1.8%	-11.8%	-34.3%	9.4%	19.8%	-14.0%	-10.0%	-14.7%
Cc1ccc(O)c(/C=N/NC(=O)Cc2ccc(Cl)cc2)c1	/	-5.3%	12.3%	/	/	/	9.2%	3.5%
CN(C[C@H](Cc1ccccc1)N(C[C@H](c1ccccc1)N(CCc1ccccc1)N=O)N=O)N=O	/	19.1%	14.8%	/	/	/	10.1%	1.1%
COCCCN1C(=O)c2ccc(C(=O)NCCc3ccccc3)cc2C1=O	/	-14.6%	-1.3%	?	?	/	8.5%	0.1%
CC(Oc1ccc(Cl)cc1Cl)c1nc(-c2ccc(NC(=O)c3ccccn3)cc2)no1 (stereo not drawn)	-15.2%	8.7%	-4.5%	?	?	-2.0%	-10.1%	-6.4%
COc1cc(/C=C/C(=O)OCC(=O)Nc2ccccc2Cl)cc(OC)c1OC	/	-17.4%	4.7%	-20.0%[46.1 µM]	-3.2%[46.1 µM]	/	-1.4%	1.5%
CC(C)c1ccc(NC(=O)N2CCCC2C(=O)Nc2ccc(-n3cnnn3)cc2)cc1 (stereo not drawn)	/	31.5%[activator]	-2.6%	10.1%[46.1 µM]	8.6%[46.1 µM]	/	3.1%	0.7%
OC1(c2ccc(OC(F)F)cc2)CSC(=Nc2cccnc2)N1C1CC1 (stereo not drawn)	27.3%	?	-48.5%	3.55µM*	?	0.4%	?	-7.4%
CCN1CCN(c2nc(N(C)c3ccccc3)nc(N)c2[N+](=O)[O-])CC1	/	-1.6%	2.6%	-25.5%[46.1 µM]	-17.6%	/	-9.7%	0.1%
Cc1noc(-c2ccc(Cl)cc2)c1C(=O)O/N=C(\N)c1ccc(C(C)(C)C)cc1	/	25.1µM*	-123.1%	?	?	/	-28.3%	-17.4%
COc1ccccc1N1CCN(C(=O)C2CC2)CC1	/	7.4%	/	1.0%[46.1 µM]	-0.8%	/	11.6%	/
CC(=O)Nc1ccc(NS(=O)(=O)c2ccc(OC(C)C(=O)N3CCOCC3)cc2)cc1 (stereo not drawn)	/	-15.5%	/	6.4%	13.9%	/	2.2%	3.8%
Cc1ccc(C(=O)Nc2c(C)nc3ccccn3c2=O)cc1C	-17.9%	27.4%	/	/	0.8%[46.1 µM]	-6.1%	/	/
COc1ccc(Cl)cc1C(=O)O/N=C(\N)c1ccncc1	/	10.3%	-32.3%	5.3%	-3.7%	/	-17.8%	-1.3%
CCc1nn2c(=O)c(S(=O)(=O)Nc3ccc(Br)cc3F)c(C)nc2s1	-5.3%	-8.6%	/	6.0%[46.1 µM]	2.1%[46.1 µM]	-1.8%	/	/
Cc1cc(C)c2ccc(/C=N/O)nc2c1O	/	-12.1%	-0.6%	/	/	/	-27.7%	7.6%
CC(=O)Nc1ccc(S(=O)(=O)N2CCC(C(N)=O)(N3CCCCC3)CC2)cc1	/	11.4%	11.4%	25.1%[46.1 µM]	/	/	15.9%	4.8%
CSc1ccc(/C=N/N2CCN(c3ccccc3)CC2)cc1	/	45.8%[activator]	/	3.0%	?	/	8.0%	-0.8%
CN(Cc1ccccc1)C(=O)CN1C(=O)CSc2ccc(S(=O)(=O)N3CCOCC3)cc21	8.7%	-5.3%	/	/	-0.7%[46.1 µM]	1.1%	/	/
CCCn1nnnc1NC(=O)CSc1ccc(Cl)cc1	9.3%	/	-1.3%	-5.5%	-2.5%	-3.6%	-10.6%	-6.5%
Cc1c2cnn(-c3ccccc3)c(=O)c2c(C)n1CCCC(=O)Nc1cccc(F)c1	8.5%	-17.5%	/	?	23.1%[46.1 µM]	-6.5%	/	/
CCCCNC(=O)CCn1nc(-c2ccc(Cl)cc2)c2ccccc2c1=O	26.3%	-21.4%&-14.8%	-1.5%	?	?	-5.6%	9.9%	0.9%
Cc1[nH]nc2c1C(c1ccc(-c3ccc(Cl)cc3)o1)C(C#N)=C(N)O2 (stereo not drawn)	-26.8%	?	-22.2%	?	-10.0%	-11.7%	39.8%	-22.1%
CCOc1ccc(CCNC(=O)Cn2nc(C)c3c(C)n(-c4ccccc4)nc3c2=O)cc1	/	-4.8%	1.2%	-10.9%[46.1 µM]	-16.8%[46.1 µM]	/	-10.0%	1.1%
COc1ccccc1Nc1nc(-c2sc(NC(=O)CC(C)C)nc2C)cs1	?	18.4%	?	/	/	-2.2%	-5.6%	5.8%
Cc1cccc2c1N1C(=O)c3c(C(=O)O)cccc3C1CC2C (stereo not drawn)	-4.4%	4.8%	-3.2%	-0.3%	4.6%	0.4%	36.4%	-16.9%
CC(C)C(=O)N1CCC2(CC1)Oc1ccc(F)cc1C(=O)C21CC(c2ccccc2)=NO1 (stereo not drawn)	/	-29.7%	14.8%	/	/	/	4.3%	-7.1%
Cc1cc(-c2csc3nc[nH]c(=S)c23)cc(C)c1C	/	?	11.8%	?	?	/	1.1%	0.6%
Cc1ccc(C(=O)O/N=C(\N)c2ccccn2)c(C)c1	/	0.891µM*	-58.5%	0.631µM*	0.794µM*	/	35.5µM*	-24.8%
Cc1ccc2cc(/C=N/Nc3nc4ccccc4[nH]3)c(Cl)nc2c1	?	7.2%	13.8%	/	/	?	-1.7%	-15.9%
COC(=O)CCCc1nc2ccccc2s1	0.0%	-28.4%	4.0%	1.1%	1.7%	5.7%	18.6%	3.2%
CC(=O)Nc1cc(C)nn1-c1nc(C)cc(C)n1	/	-10.0%	11.6%	2.4%	-2.4%	/	-8.9%	-1.1%
COc1ccc(Cl)cc1NC(=O)c1cc(C)nc2c1c(C)nn2-c1ccccc1	3.1%	-3.7%	/	/	25.7%[46.1 µM]	0.4%	/	/
